Bioassay records (PubChem)
miR-21 FLuc = qHTS Assay for Modulators of miRNAs and/orActivators of miR-21; AID 2288, 2010; Potency, µM (highest dose often 38.3 µM), inactives show at the top dose reporter change, positive = more light; 340,000 tested, under 10 active; HeLa miR-21 FLuc reporter, luciferase, 48 h; active = well fitted rising curve with a large enough effect; inconclusive = small, poorly fitted or top-dose-only effect; inactive = no such curve, though single readings can be large or run the other way;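 also: % of control where 0% means no effect; miR-21 action dims this reporter so a rising signal means less miR-21 action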
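Luminescence from a firefly luciferase reporter carrying a miR-21 binding site downstream, stably expressed under a CMV promoter in HeLa cells that make miR-21 endogenously, reports miRNA modulation after 48 h compound exposure up to approximately 40uM final.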
GLA inh pH 4.5 = qHTS Assay for Inhibitors of Human alpha-Galactosidase at pH 4.5 | Alpha-galactosidase A (Homo sapiens), P06280 | purified enzyme, 4-MU-alpha-Gal fluorescence, pH 4.5 | activity change, negative = inhibition, % at 105 µM | 230,000 tested, under 10 active | AID 1467, 2008; inconclusive = small, poorly fitted or top-dose-only inhibition, or a rising curve; inactive = flat fitted curve, though single readings scatter; no compound was filed as active;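 also: 0% = full activity with enzyme and -100% = basal without enzyme; dose as in the result columns while the protocol names 77 µM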
Target sequence (P06280 whole entry, looked up): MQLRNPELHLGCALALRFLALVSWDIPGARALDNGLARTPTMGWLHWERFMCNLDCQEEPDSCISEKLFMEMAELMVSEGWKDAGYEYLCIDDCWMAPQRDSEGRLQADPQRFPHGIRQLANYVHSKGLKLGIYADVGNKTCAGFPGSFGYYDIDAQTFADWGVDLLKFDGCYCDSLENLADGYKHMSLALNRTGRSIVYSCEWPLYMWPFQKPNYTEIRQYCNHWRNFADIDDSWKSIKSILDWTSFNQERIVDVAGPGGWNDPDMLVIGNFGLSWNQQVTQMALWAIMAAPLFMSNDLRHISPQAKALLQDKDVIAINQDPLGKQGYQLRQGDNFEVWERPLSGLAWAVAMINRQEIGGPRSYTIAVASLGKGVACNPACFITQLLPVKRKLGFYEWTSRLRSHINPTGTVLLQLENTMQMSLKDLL
Rango dissoc inh = qHTS Assay for Inhibitors of RanGTP induced Rango (Ran-regulated importin-beta cargo) - Importin beta complex dissociation; Biochemical FRET Rango-importin beta, RanGTP-induced dissociation; Potency, µM (top dose mostly 46.1 µM), for the others: top-dose activity change, negative = inhibition; 340,000 compounds, 0.071% hits; Snurportin-1 (Homo sapiens) + GTP-binding nuclear protein Ran (Homo sapiens) + Importin …; active means falling FRET ratio curve, often poorly fitted, with flat reads before Ran was added; inconclusive means other falling curves, or compound fluorescence or quenching; inactive means flat or rising ratio curve;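 also: potency is read from the fitted curve at half-maximal effect; % of control where 0% means no effect; nearly all actives have a fitted effect of over 45% in size; -100% = wells without RanGTP and RCC1; the record marks most hits as doubtful in a second field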
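Rango FRET biosensor (snurportin-1 IBB flanked by N-terminal EYFP and C-terminal CFP10) at 0.1 uM, with 0.25 uM importin beta in PBS, 1mM DTT, 0.02% Tween-20, 0.1% BSA. 0.6 uM Ran, 2mM GTP and 0.2 uM RCC1 were then added for 45 min at room temperature. Inhibition read as loss of FRET rise.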
Rango complex inh = qHTS Assay for Inhibitors of Rango (Ran-regulated importin-beta cargo) - Importin beta complex formation | 340,000 compounds, 0.031% hits | Potency, µM (series often up to 92.2 µM), for inactives: at the highest dose inhibition of complex formation | Rango CFP/YFP FRET sensor + importin beta, 45 min | Importin subunit beta-1 (Homo sapiens), Q14974; active = rising FRET ratio curve, often small or poorly fitted; inconclusive = mostly compound fluorescence or quenching in the first reads; inactive = flat curves in all reads;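 also: potency is read from the fitted curve at half-maximal effect; 0% = DMSO wells and 100% = buffer wells lacking importin beta; nearly all actives have a fitted effect of over 15% in size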
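FRET biosensor (snurportin 1 IBB flanked by EYFP and cerulean), 50 nM, with compound 5 min, then 0.125 microM importin beta in PBS, 1 mM DTT, 0.02% Tween-20, 0.1% BSA. CFP/YFP ratio read after 45 min at room temperature; pre-read flags interference.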
Active calls of the source: *; ? = inconclusive; . = not tested or not shown; & = joins results of further samples. Some of the compounds tested, so the mix of outcomes need not match the whole.

#	Molecule	miR-21 FLuc	GLA inh pH 4.5
1	O=C(c1ccco1)c1cn[nH]c1-c1ccc(Cl)cc1O	1%	1
2	CCOC(=O)N1CCN(Cc2cn[nH]c2-c2cc3ccccc3o2)CC1	1%	-9
3	Cc1nnc2sc(SCc3ccccc3Cl)nn2c1=O	-11%	-16
4	CCOC(=O)c1ccc(N2C(=O)c3n[nH]c(C)c3C2c2ccc(OC)cc2)cc1 (centres undefined)	4%	-14
5	Fc1ccc(C(Nc2ccccn2)c2c[nH]c3ccccc23)cc1 (centres undefined)	2%	6
6	CCCCOc1ccc(/C(O)=C2/C(=O)C(=O)N(CCCOC)C2c2ccncc2)cc1 (centres undefined)	3%	0
7	CCN(C(=O)CSc1nc2ccc(O)cc2c(=O)n1-c1ccc(OC)c(OC)c1)C1CCS(=O)(=O)C1 (centres undefined)	.	.
8	CCSc1nc(O)cc(=O)n1CC	2%	-13
9	COc1ccc(Cc2c(O)nc[nH]c2=O)cc1	-9%	-6
10	COC(=O)c1cc(=O)c2c([N+](=O)[O-])ccc(OC)c2o1	-11%	6

#	Rango dissoc inh	Rango complex inh
1	9%	-2.1%
2	-2%	-0.4%
3	-10%	-3.4%
4	2%	5.8%
5	0%	-0.5%
6	-16%	0.9%
7	9%	-0.5%
8	6%	0.3%
9	2%	10%
10	-9%	-1.9%

Going on with the list:
#	Molecule	miR-21 FLuc	GLA inh pH 4.5
11	NC(=O)CSc1nnc(-c2ccncc2)o1	-2%	2
12	COCCN(Cc1ccccc1)C(=O)c1c(C)nn(-c2ccccc2)c1C	-5%	-1
13	CCN(c1ccc(OC)cc1)S(=O)(=O)c1ccc2c(c1)NC(=O)CS2	-5%	.
14	CCCCCCCC(=O)OCC(=O)[C@@]1(O)CC[C@H]2[C@@H]3CCC4=CC(=O)CC[C@]4(C)[C@H]3[C@@H](O)C[C@@]21C	-32%	-2
15	C[C@H]1C(=O)N(C)CCN1C(=O)c1ccccc1OC1CCN(S(C)(=O)=O)CC1	-2%	4
16	CCOc1ccccc1CNC(=O)CCCc1cn(C)c2ccccc12	-15%	1
17	Cc1cc(C(=O)OCC(=O)N2C(C)CCCC2C)c(C)o1 (centres undefined)	-14%	-6
18	COc1ccccc1CNC(=O)/C(C#N)=C/c1ccc(OC)c(OC)c1OC	-2%	.
19	Cc1ccccc1N1C(=O)C2C3C=CC(C2C1=O)N(C)C3=O (centres undefined)	-3%	-3
20	Cc1ccc(Cn2cnc3sc4c(c3c2=O)CCC4)c(C)c1	-5%	-5

#	Rango dissoc inh	Rango complex inh
11	3%	?
12	-6%	-0.3%
13	4%	2.0%
14	7%	2.2%
15	14%	-2.2%
16	14%	1.1%
17	8%	?
18	14%	-0.1%
19	-4%	-2.0%
20	2%	-0.4%

(list continues)
#	Molecule	miR-21 FLuc	GLA inh pH 4.5
21	Cc1cccc(C(=O)NC(=S)N(C)C2CCCCC2)c1	-41%	.
22	CC1C(=O)N(Cc2ccc([N+](=O)[O-])cc2)c2ccccc2N1C(=O)c1c(F)cccc1F (centres undefined)	7%	.
23	COc1ccc2[nH]c(=O)c(CN(C(=O)C3CCCO3)c3cccc(C)c3)cc2c1 (centres undefined)	-7%	5
24	CCCCCCC(=O)N1CCCC(c2nc(-c3cccc(OC)c3)no2)C1 (centres undefined)	-16%	4
25	Cc1ccc(NC(=O)C2CCCN(C(=O)c3ccc(Cl)cc3)C2)cc1C (centres undefined)	5%	-3
26	NS(=O)(=O)c1cccc(NC(=O)COC(=O)CCCc2c[nH]c3ccccc23)c1	-3%	4
27	FC(F)(F)c1ccc(CN2C[C@@H]3C(c4ccccc4)C4(c5cccnc5)CC3(C4)[C@H]2c2ccccc2)cc1 (some centres undefined)	10%	-4&-1
28	O=c1cc(-c2ccc(O)c(-c3c(O)cc(O)c4c(=O)cc(-c5ccc(O)cc5)oc34)c2)oc2cc(O)cc(O)c12	-11%	2
29	CCOC(=O)N1CCN(C(=O)c2ccc(N(Cc3ccccc3Cl)S(C)(=O)=O)cc2)CC1	-9%	.
30	CC(=O)Nc1nnc(CSCc2ccccc2F)s1	-39%	2

#	Rango dissoc inh	Rango complex inh
21	1%	-0.6%
22	21%	1.3%
23	.	.
24	2%	-2.6%
25	-10%	-1.3%
26	-8%	1.9%
27	-4%	-0.7%
28	23%	-3.9%
29	19%	0.4%
30	-9%	-0.1%

Additional results.
#	Molecule	miR-21 FLuc	GLA inh pH 4.5
31	CCN(CC)C(=S)SC1=CCS(=O)(=O)C1	0%	-5
32	CCOC(=O)C1CCN(C(=O)COc2ccc([N+](=O)[O-])cc2)CC1	1%	4
33	COc1ccccc1N1CC(C(=O)OCC(=O)Nc2cc(C)on2)CC1=O (centres undefined)	.	.
34	c1ccc2[nH]c(CSc3nc4ccccc4o3)nc2c1	-18%	4
35	Cc1noc(C)c1S(=O)(=O)N(C)C[C@H]1Oc2c(NC(=O)Nc3ccccc3)cccc2C(=O)N([C@H](C)CO)C[C@@H]1C	.	.
36	NC(=O)c1nsc(C(=O)N(c2cccc(F)c2)C(C(=O)NCC2CCCO2)c2ccc3ncccc3c2)c1N (centres undefined)	-3%	.
37	O=C(Nc1ccc(S(=O)(=O)NC2=NCCCCC2)cc1)c1ccc(Cl)c([N+](=O)[O-])c1	.	.
38	CCOC(=O)c1ccc(NC(=S)NCCc2ccc(OC)c(OC)c2)cc1	9%	-6
39	COc1ccc(CN(CC(=O)NCc2ccc(F)cc2)C(=O)CCC(=O)Nc2cc(C)ccn2)cc1	0%	.
40	CCCCn1ccnc1C(=O)c1cc(S(=O)(=O)N2CCOCC2)ccc1C	13%	6

#	Rango dissoc inh	Rango complex inh
31	-4%	-4.4%
32	-14%	2.1%
33	11%	-0.1%
34	-19%	1.3%
35	52%	-0.1%
36	-22%	?
37	26%	1.2%
38	0%	-2.4%
39	-4%	1.8%
40	22%	0.2%

Following part:
#	Molecule	miR-21 FLuc	GLA inh pH 4.5
41	O=C(N/N=C/C(Br)=C\c1ccccc1)c1n[nH]c2c1CCC2	-18%	-14
42	Cc1ccccc1/C=N/n1c(C2CCCCC2)n[nH]c1=S	-5%	.
43	COc1cccc(OC)c1NC(=O)Cc1nn(C)c(=O)c2ccccc12	7%	1
44	Cc1c(CNCc2cccs2)c(C(=O)O)c(C)n1Cc1ccccc1	-5%	-2
45	COc1cccc(CNC(=O)c2ccc(NC3=NC4CS(=O)(=O)CC4S3)cc2)c1 (centres undefined)	0%	.
46	Nc1ccccc1NC(=O)CCn1c(=S)[nH]c2ccccc2c1=O	-12%	.
47	COc1ccccc1-c1nc(SCC(=O)NCC2CCCO2)c2c(=O)n(C)c(=O)n(C)c2n1 (centres undefined)	0%	3
48	O=C(CN(Cc1ccccc1Cl)C(=O)c1csnn1)NCCc1ccccc1	2%	.
49	NC(=O)c1ccc[n+](CC(=O)OCCC23CC4CC(CC(C4)C2)C3)c1	-3%	-1
50	COCCOC(=O)C1=C(C)NC(=O)NC1c1ccc(-c2cc(Cl)ccc2Cl)o1 (centres undefined)	-15%	8

#	Rango dissoc inh	Rango complex inh
41	23%	-1.0%
42	2%	-0.1%
43	0%	4.6%
44	6%	0.5%
45	9%	-1.0%
46	2%	2.5%
47	.	.
48	1%	-1.6%
49	-8%	0.0%
50	-14%	-0.3%

Compound profiles, from the list above. Screens in order: miR-21 FLuc | GLA inh pH 4.5 | Rango dissoc inh | Rango complex inh
Results for COc1ccccc1-c1nc(SCC(=O)NCC2CCCO2)c2c(=O)n(C)c(=O)n(C)c2n1 (centres undefined) → 0% | 3 | . | .
Results for Nc1ccccc1NC(=O)CCn1c(=S)[nH]c2ccccc2c1=O → -12% | . | 2% | 2.5%

Continued.
#	Molecule	miR-21 FLuc	GLA inh pH 4.5
51	COc1ccccc1-c1nn2c(-c3ccco3)nnc2s1	-91%	-2
52	CCC1(CC)C(=O)NN(c2ccccc2)C1=O	1%	-1
53	CN(CC(=O)Nc1cccc(F)c1)CC(=O)Nc1cccc(S(N)(=O)=O)c1	0%	7
54	CC(C)(C)NC(=O)C(c1ccco1)N(Cc1ccc(F)cc1)C(=O)c1snc(C(N)=O)c1N (centres undefined)	-2%	0
55	C=CCOc1c(Br)cc(/C=N/Nc2ccc(C(=O)O)cc2)cc1OCC	-89%	-5
56	Cc1cc(/C=C2\Cc3ccccc3C2=O)c(C)n1-c1ccccc1	-23%	-6
57	COc1cc(Cl)c(C)cc1NC(=O)c1ccccc1NC(=O)CN1CCOCC1	2%	.
58	Cc1ccc(OCC(=O)Nc2c[nH]c(=O)[nH]c2=O)cc1C	0%	10
59	CCC(=O)Nc1ccc(C(=O)c2ccccc2)cc1	-50%	-6
60	Cc1cccc(C)c1NC(=O)NN(C(=O)c1ccccc1)C(C)(C)C	1%	2

#	Rango dissoc inh	Rango complex inh
51	-6%	?
52	0%	-1.7%
53	-22%	-0.6%
54	6%	0.6%
55	-21%	-1.2%
56	?	?
57	4%	0.8%
58	10%	6.6%
59	-6%	0.2%
60	0%	-1.1%

Remaining list, next part:
#	Molecule	miR-21 FLuc	GLA inh pH 4.5
61	Nc1ccc2c(c1)COC2=O	-32%	1
62	Clc1ccc(C2=CC(c3ccco3)n3ncnc3N2)cc1 (centres undefined)	0%	-1
63	C=CCNC(=O)/C(C#N)=C/c1cn(-c2ccccc2)nc1-c1cccs1	-2%	11
64	CC1=CC(=C2C(=O)c3ccccc3C2=O)C=C(C)N1Cc1ccco1	-26%	-14
65	CN(C)S(=O)(=O)c1ccc(Cl)c(C(=O)NNC(=O)c2ccc3c(c2)OCO3)c1	.	.
66	CSCCC(NC(=O)c1ccccc1Br)C(=O)NNC(=O)c1csc(N2CCOCC2)n1 (centres undefined)	.	.
67	Cc1nn(-c2ccccc2Cl)c(Cl)c1/C=N/Nc1nc2ccccc2s1	16%	-2
68	O=C(COc1ccccc1)NCC(c1ccco1)N1CCN(c2ccccc2F)CC1 (centres undefined)	.	.

#	Rango dissoc inh	Rango complex inh
61	0%	1.6%
62	?	?
63	?	?
64	-11%	?
65	12%	-1.7%
66	-20%	-10%
67	2%	1.7%
68	15%	9.2%

In the list so far, nine have fluorine:
#	Molecule	miR-21 FLuc	GLA inh pH 4.5
5	Fc1ccc(C(Nc2ccccn2)c2c[nH]c3ccccc23)cc1 (centres undefined)	2%	6
22	CC1C(=O)N(Cc2ccc([N+](=O)[O-])cc2)c2ccccc2N1C(=O)c1c(F)cccc1F (centres undefined)	7%	.
27	FC(F)(F)c1ccc(CN2C[C@@H]3C(c4ccccc4)C4(c5cccnc5)CC3(C4)[C@H]2c2ccccc2)cc1 (some centres undefined)	10%	-4&-1
30	CC(=O)Nc1nnc(CSCc2ccccc2F)s1	-39%	2
36	NC(=O)c1nsc(C(=O)N(c2cccc(F)c2)C(C(=O)NCC2CCCO2)c2ccc3ncccc3c2)c1N (centres undefined)	-3%	.
39	COc1ccc(CN(CC(=O)NCc2ccc(F)cc2)C(=O)CCC(=O)Nc2cc(C)ccn2)cc1	0%	.
53	CN(CC(=O)Nc1cccc(F)c1)CC(=O)Nc1cccc(S(N)(=O)=O)c1	0%	7
54	CC(C)(C)NC(=O)C(c1ccco1)N(Cc1ccc(F)cc1)C(=O)c1snc(C(N)=O)c1N (centres undefined)	-2%	0
68	O=C(COc1ccccc1)NCC(c1ccco1)N1CCN(c2ccccc2F)CC1 (centres undefined)	.	.

#	Rango dissoc inh	Rango complex inh
5	0%	-0.5%
22	21%	1.3%
27	-4%	-0.7%
30	-9%	-0.1%
36	-22%	?
39	-4%	1.8%
53	-22%	-0.6%
54	6%	0.6%
68	15%	9.2%
